NPYLR7 ag: agonists of mosquito NPYLR7 receptor, primary screen, cell-based, Aedes aegypti, calcium fluorescence, mosquito biting behavior; Aedes aegypti neuropeptide Y-like receptor 7 (NPYLR7); HEK293T NPYLR7/Galpha15, GCaMP6s calcium fluorescence; activation, % at 10 µM; actives 0.15% (n = 270,000); AID 1259423, 2018; in the data active = activation above about 40%;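 note: 0% = vehicle and 100% = reference agonist at the receptor; some compounds past the cut are filed as inactive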
NPYLR7 ag max-min: recorded beside NPYLR7 ag, whose call it bears; activation, %; measured here: Max-Min RFU normalised activation; some inactives read as strong as hits;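 span of the calcium signal over five minutes; 0% = vehicle and 100% = native peptide agonist; compound fluorescence can raise it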
* hit, by the source's call; & = joins results of further samples.

Results follow in this order: NPYLR7 ag	NPYLR7 ag max-min
- Cc1c(NC(=S)NC(=O)c2ccc(Br)o2)c(=O)n(-c2ccccc2)n1C
→ 0	2
- Cc1c(C)n2c3c(=O)[nH]c(=O)n(C)c3nc2n1-c1ccc(Oc2ccccc2)cc1
→ 1	-2
- Cc1c(NC(=O)Cc2csc(NC(=O)NC3CCCCC3)n2)c(=O)n(-c2ccccc2)n1C
→ -3	0
- CNC(=O)C1CN(C(=O)COc2ccccc2Cl)c2ccccc2O1 (configuration not stated)
→ -2	-2
- COc1ccccc1C(=O)Oc1ccc(NC2=NS(=O)(=O)c3ccccc32)cc1
→ -4	-5
- COc1ccc(NC(=O)c2cc(-c3ccc(F)cc3)nc3ccccc23)cc1OC
→ -19	-22
- CCCCc1nc(-c2nccn2CCn2ccnc2)c(Cl)[nH]1
→ -2	-8
- FC(F)(F)c1ccc(-c2nc(-c3ccc(Br)cc3)no2)cc1
→ -10	-12
- O=C1N=c2ccccc2=C1c1sc(=S)n(NC(=O)c2ccc(Br)cc2)c1O
→ 10	12
- Cc1ccc(-c2csc(N)n2)s1
→ 1	9
- CCCCn1ccc2c(nnc3c(-c4ccccc4)cnn32)c1=O
→ 2	1
- CCOC(=O)c1c(NC(=O)CN2CCC(C)CC2)sc2c1CCC(C)C2 (configuration not stated)
→ -4	-12
- CC(C)Cn1c2c(=O)[nH]c(=O)n(C)c2n2c(-c3ccc(Cl)cc3)nnc12
→ 7	3
- CC(C1CC1)N(C)CC(=O)NCc1cnn(-c2ccccc2)n1 (configuration not stated)
→ -3	-2
- CC(C)CC(=O)Nc1ccnn1C1CCN(C(=O)[C@@H]2C[C@@H]3C=C[C@H]2C3)CC1
→ 4	2
- O=C(c1ccccc1OC1CCN(Cc2nc3c(s2)CCCC3)CC1)N1CCCCC1
→ -1	-4
- O=C(Oc1cccnc1)c1ccc(Cl)c(Cl)c1
→ -3	-4
- CCNC(=O)c1cc(-c2ccccc2)nc2ccccc12
→ 9	13
- CC(C(=O)N1CC(=O)Nc2ccccc21)N1CCCc2ccccc21 (configuration not stated)
→ -3	0
- COc1ccccc1N1CCNC(C)C1=O (configuration not stated)
→ -5	-1
- CCC(C)N(Cc1ccc(OS(=O)(=O)c2ccc(F)cc2)cc1)C(=O)Nc1ccc(OC)cc1 (configuration not stated)
→ -7	-2
- CN(Cc1nc2ccsc2c(=O)[nH]1)Cc1ccco1
→ 7	13
- CC1CCN(C(=O)c2ccc(Cl)o2)CC1
→ -1	-7
- O=C(Nc1cnn(Cc2cccnc2)c1)N1CCC(Nc2ccccc2)C1 (configuration not stated)
→ 4	1
- Cc1cccc(-c2noc(N3CCCC3)c2CN(CC(O)COc2ccccc2)C(C)C)c1 (configuration not stated)
→ -7	-4
- CC(=O)C1=C(c2ccc(Cl)cc2)N(C(C)=O)n2c(nnc2-c2ccc(Cl)cc2)S1
→ 4	1
- C#CCn1c(O)c(N=NC(=O)CNC(=O)c2cccc(Cl)c2)c2ccccc21
→ -2	-8
- COc1ccc2[nH]c3c(c2c1)CCN(C(=O)/C=C/c1ccccc1Cl)C3c1ccc(OCc2ccccc2)cc1 (configuration not stated)
→ 13	-3
- O=C(Nc1ccc2c(c1)OCO2)C(C1CCCC1)N1CCN(C(=O)c2ccc(Cl)c(Cl)c2)CC1 (configuration not stated)
→ 17	17
- CCN(CC)c1c(C)nc2ccc(C(=O)NCCN3CCNC3=O)cn12
→ -4	-10
- Fc1ccc(CNC(=S)NCCN2CCOCC2)cc1
→ -3	-10
- CC(=O)C(C)Sc1cc(C(C)(C)C)nc2c(-c3ccccc3)c(C)nn12 (configuration not stated)
→ -4	-6
- O=C1OC(/C=C/c2ccc(Cl)cc2Cl)=NC/1=C\c1cccs1
→ -2	-10
- CS(=O)(=O)Nc1ccc(C2=NN(S(C)(=O)=O)C(c3ccc4c(c3)OCO4)C2)cc1 (configuration not stated)
→ 26	21
- Cc1cccc(C(=O)NCC(CCC(=O)O)C(F)(F)F)c1 (configuration not stated)
→ 0	-1
- Clc1cccc(N=C2CCCc3ccccc32)c1
→ -3	-5
- Cc1nccn1CC1CCCN(CCCc2ccccc2)C1 (configuration not stated)
→ 2	-7
- CC(C)NC(=O)C1CCC(=O)N1C1CCCC1 (configuration not stated)
→ 6	4
- CCC(=O)N1CCC[C@@H]1C(=O)NCCCNC(=O)c1ccc(F)cc1
→ 23	28
- CCCOc1cc(C)ccc1S(=O)(=O)N1CCN(c2ccccc2)CC1
→ 5	11

Three entries already listed, arranged by molar mass, largest number first.
Results follow in this order: NPYLR7 ag	NPYLR7 ag max-min
- O=C(Nc1cnn(Cc2cccnc2)c1)N1CCC(Nc2ccccc2)C1 (configuration not stated)
→ 4	1
- CCN(CC)c1c(C)nc2ccc(C(=O)NCCN3CCNC3=O)cn12
→ -4	-10
- CC1CCN(C(=O)c2ccc(Cl)o2)CC1
→ -1	-7

Other structures
Results follow in this order: NPYLR7 ag	NPYLR7 ag max-min
- CCOc1ccc(-n2nnnc2CN2CCN(S(=O)(=O)c3cccnc3)CC2)cc1
→ 1	0
- O=C(c1ccc(CSCc2ccc(Cl)cc2)cc1)N1C2CCC1CC(Oc1ccc3c(c1)OCO3)C2 (configuration not stated)
→ 4	-6
- CC(C)CN=C1NC(=O)C(CC(=O)NC2CC2)S1 (configuration not stated)
→ 1	1
- Cc1cc(C)cc(Oc2cc(C)nc(SCc3cccc(F)c3)n2)c1
→ -5	-2
- CCCCCc1ccc(C(=O)Nc2ccc(N3CCCC3)c(C(=O)N(CC)CC)c2)cc1
→ 1	0
- COc1ccc(-c2nc(CSc3nc(SC)ns3)cs2)cc1OC
→ 26	34
- CC(C#N)c1cccc(C(=O)N2CCOC(Cc3ccccc3)C2)c1 (configuration not stated)
→ 28	32
- CC(C)Cc1cc(CN2CCCC(C(=O)c3ccc4c(c3)OCO4)C2)[nH]n1 (configuration not stated)
→ 9	-1
- CCCCN(C(C)=O)c1c(CC)nc2ccc(C(=O)NCCc3c[nH]c4ccccc34)cn12
→ 6	-9
- COc1cc(OC)cc(-c2nc3ccccc3c(=O)n2CCc2ccc(F)cc2)c1
→ 1	-1
- CC(C)(C)c1cc2nc(-c3ccccc3)cc(C(=O)NC3CC3)n2n1
→ 20&4	18&10
- COCc1cccc(-c2ccc3c(c2)COCC(=O)N3CCN2CCOCC2)c1
→ 8	4
- CCOc1ccc(C(C2Sc3nc(C)nn3C2=O)N2CC(C)CC(C)C2)cc1 (configuration not stated)
→ 0	-1
- CCOC(=O)C1=C(C)NC2=C(C(=O)CCC2)C1c1ccc(C)s1 (configuration not stated)
→ 5	3
- Cc1ccc(NC(=O)C2(C)CCN2C(=O)C/C=C/c2ccccc2)cc1 (configuration not stated)
→ -7	2
- O=c1[nH]c(-c2ccc(C(F)(F)F)cc2)nc2c1CCCC2
→ -4	-4
- O=C(C1CCN(c2nc(Cc3ccc(F)cc3)ns2)CC1)N1CCN(Cc2ccc3c(c2)OCO3)CC1
→ 2	9
- O=C(O)c1ccc(CSc2nnc(-c3cccs3)n2-c2cccc(Cl)c2)cc1
→ 0	-3
- COC(=O)c1cc(-c2ccc(C)cc2)on1
→ -4	-4
- S=c1[nH]nc(-c2c[nH]c3ccccc23)n1CC1CCCO1 (configuration not stated)
→ 0	4

An excerpt of these results, as tab-separated lines:
SMILES	NPYLR7 ag	NPYLR7 ag max-min
Cc1cc(C)cc(Oc2cc(C)nc(SCc3cccc(F)c3)n2)c1	-5	-2
CCCCCc1ccc(C(=O)Nc2ccc(N3CCCC3)c(C(=O)N(CC)CC)c2)cc1	1	0

(continued)
Results follow in this order: NPYLR7 ag	NPYLR7 ag max-min
- Cc1noc(C)c1CN1CCC(c2n[nH]c(=O)n2Cc2ccccc2)CC1
→ 1	-3
- CCOC(=O)C1=NN(c2ccc(F)cc2)C2(N3CCOCC3)CCCC12 (configuration not stated)
→ 8	4
- O=C1NC2(CCN(Cc3ccncc3)CC2)Nc2ccc(Br)cc21
→ 0	6
- COC(=O)CCNC(=O)Cn1cnc2ccc([N+](=O)[O-])cc2c1=O
→ -2	-1
- COc1nc2ccccc2cc1-c1cc(C(N)=O)ccn1
→ 25	22
- CCN(CC1CCOC1)C(=O)CCc1c(C)nc2c(C#N)cnn2c1C (configuration not stated)
→ 1	-4
- O=C1OC(c2ccccc2)C(O)(O)C1(O)O (configuration not stated)
→ -6	-8
- COc1cc(C=NOCc2cccc3ccccc23)ccc1OC(F)F
→ 5	3
- CC(C)(C)OC(=O)N1CCC(C(=O)NCCCOc2cccc([N+](=O)[O-])c2)CC1
→ -8	-10
- COc1ccc(C(=S)N2CCOCC2)cc1
→ -2	-3
- O=C(CNS(=O)(=O)c1ccccc1)NNC(=O)c1n[nH]c2ccccc12
→ 9	2
- O=C(c1cccnc1Cl)N1CCN(c2nc3nccc(-c4ccc(C5CCCCC5)cc4)n3n2)CC1
→ 4	1
- Cn1cc(C(CC(=O)N2CCN(c3ccc([N+](=O)[O-])cc3)CC2)c2cccc(F)c2)c2ccccc21 (configuration not stated)
→ 2	15
- CCc1csc(NC(=O)N(CC)Cc2ccccn2)n1
→ 4	3
- CCN(CC)C(=O)C1CCCN(Cc2nc(C(c3ccccc3)c3ccccc3)no2)C1 (configuration not stated)
→ 14	5
- CCOC(=O)c1c(NC(N)=S)sc(C)c1C
→ -3	-4
- Cc1cc(C(=O)N2CCOc3c(O)cc(-c4ccccc4C)cc3C2)n[nH]1
→ 2	1
- Nc1ccc(Cl)cc1-c1nc2cc(Cl)ccc2o1
→ 3	2
- O=C(c1ccc2cccc(F)c2n1)N1CCCC(O)(CO)CC1 (configuration not stated)
→ 3	3
- Cc1ccccc1-n1nc(C)c2c1NC(=O)CC2c1cc(C(C)C)no1 (configuration not stated)
→ -3	-5

Continued; the last 4 above are carried over.
Results follow in this order: NPYLR7 ag	NPYLR7 ag max-min
- Cc1cc(C(=O)N2CCOc3c(O)cc(-c4ccccc4C)cc3C2)n[nH]1
→ 2	1
- Nc1ccc(Cl)cc1-c1nc2cc(Cl)ccc2o1
→ 3	2
- O=C(c1ccc2cccc(F)c2n1)N1CCCC(O)(CO)CC1 (configuration not stated)
→ 3	3
- Cc1ccccc1-n1nc(C)c2c1NC(=O)CC2c1cc(C(C)C)no1 (configuration not stated)
→ -3	-5
- COCc1c(Br)c(C)nc(OCC(=O)N/N=C\c2ccc(-c3ccc(Cl)cc3Cl)o2)c1C#N
→ 5	6
- Cc1ccc(C(=O)N(CCN2CCOCC2)c2nc3c(F)cc(F)cc3s2)cc1
→ 7	0
- COc1cc(C2SCCN2C(=O)NC2CCCCC2)ccc1OCc1ccccc1 (configuration not stated)
→ -5	-3
- Cc1ccc(C2c3cccn3CCCN2Cc2cccc(C(F)(F)F)c2)cc1C (configuration not stated)
→ 10	17
- Oc1cc(-c2csc3ccccc23)cc2c1OCCN(CCn1cncn1)C2
→ 6	4
- Cc1[nH]n(-c2nc(-c3ccc(Br)cc3)cs2)c(=O)c1N=Nc1cccc(Cl)c1C
→ -4	-9
- Cc1nn2c(=O)c(C(=O)O)cnc2s1
→ 4	7
- COc1cc(CNC2CC2)c(-c2ccccc2)cc1OC
→ 7	5
- COc1ccc(C2=NOC(CN(Cc3cccc(Cl)c3)C(=O)c3cccc(F)c3)C2)cc1OC (configuration not stated)
→ 24	26
- S=c1[nH]nc(-c2ccccc2Cl)o1
→ -9&5	-15&3
- C=CCNC(=O)NC(C)c1ccccc1C (configuration not stated)
→ 6	-1
- Cn1cc(/C=C/C(=O)N2CCc3[nH]nc(-c4ccccc4)c3C2)cn1
→ -6	-9
- COCCOC(=O)C1=C(C)N(C)C(=S)NC1c1cccc(NC(=O)Nc2cccc(C(F)(F)F)c2)c1 (configuration not stated)
→ 16	16
- Cc1nc2ccccn2c1CN(C)Cc1nc(-c2cccnc2)no1
→ 2	2
- COCCNC(=O)C(NC(=O)c1ccc(F)cc1)C1CCN(S(=O)(=O)c2ccc(C)cc2)CC1 (configuration not stated)
→ 6	2
- Cn1nnc2c(=O)n(CC(=O)N3CCN(c4ccccc4)CC3)cnc21
→ 5	8
- Fc1ccccc1N1CCN(Cc2cc3n(n2)CCNC3)CC1
→ 6	2
- CCOc1ccc(-n2ccnc(SCC(=O)c3ccc(C)cc3C)c2=O)cc1
→ -10	-17
- CN(CC(=O)Nc1ccccc1Cl)C(=O)c1ccc2c(=O)n3c(nc2c1)CCC3
→ -2	-4
- Cc1ccc(-c2nc(-c3ccc(NC(=O)c4ccco4)cc3)no2)cc1[N+](=O)[O-]
→ -2	-5
- Cn1c(=O)n(C)c2cc(CNC(=O)Cc3c[nH]c4ccccc34)ccc21
→ 7	5
- COc1cc(C(=O)Nn2c(C)nnc2C)ccc1OC(F)F
→ -1	1
- Cc1ccc(-c2cc(C(=O)N3CCN(C/C=C/c4ccccc4)CC3)n(-c3ccc(F)cc3)n2)o1
→ -5	0
- CCOC(=O)C1=C(O)/C(=C\c2cccc(C)c2O)SC1=Nc1ccccc1C
→ 12	15
- COc1ccc2c(c1)OC[C@@H]1CN(CC(C)(C)O)C(=O)CCN(C(=O)c3ccno3)[C@H]21
→ 26	25
- COc1cc(/C=N\Nc2oc(C(C)C)nc2C#N)ccc1O
→ -5	-11
- Cn1ccnc1CN1CCCC1C(=O)Nc1ccccc1Oc1cccnc1 (configuration not stated)
→ 0	-6
- CSc1cccc(NC(=O)CCC(=O)N2CCN(c3ccccn3)CC2)c1
→ -9	-15
- CC(C)(C)c1ccc(S(=O)(=O)NC(=O)C2(C)CCN2C(=O)CC2CCCCC2)cc1 (configuration not stated)
→ 4	3
- CCn1cc(NC(=O)NC(CC)(CC)c2ccc(Cl)cc2)cn1
→ 4	2
- COc1cccc(Cc2nsc(N3CCCN(C(=O)c4ccccc4Br)CC3)n2)c1
→ -10	-14
- COCc1nc(C)nc(N2CCN(C(=O)c3ccccc3Cl)CC2)c1Cc1cc(C)ccc1C
→ -1	3
- O=C(CC1C=CS(=O)(=O)C1)NCc1ccccc1Cl (configuration not stated)
→ 5	6

Assay outcomes as filed in PubChem.

An excerpt; count on the stated rates, not on these rows.
